RE007 growth inh: qHTS Assay for Inhibitors of the HIV-1 protein Vpr; S. pombe RE007 Vpr strain, BacTiter-Glo ATP luminescence, 24 h; control for the full effect not named in the record; Potency, µM (series often up to 92.2 µM), inactives show at the top dose activity change, negative = less growth; hit rate 0.21% among 360,000; AID 651644, 2012; active = well fitted falling curve with a large enough effect; inconclusive = small, poorly fitted or top-dose-only effect; inactive = no such curve, though single readings can be large or run the other way;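 also: % is scaled to controls: 0 for no effect and ±100 for the full control effect; nearly all actives have a fitted effect of over 50% in size; the assay follows cell death caused by Vpr and the record does not say whether a fall means rescue or toxicity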
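Fission yeast RE007 carrying one integrated HIV-1 vpr copy, seeded at OD 0.01 in PMG+AL medium with 23 nL pinned compound. Grown 24 h at 30 degrees; viability read by BacTiter-Glo luminescence after 5 min.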
SARS PLpro yeast: qHTS of Yeast-based Assay for SARS-CoV PLP. S. cerevisiae expressing SARS-CoV PLpro, growth rescue; control for the full effect not named in the record. hit rate 0.19% among 330,000. Potency, µM (titrated, usually from 32.9 µM), for inactives: at the top dose activity, positive = growth rescue; active means well fitted rising curve with a large enough effect; inconclusive means small, poorly fitted or top-dose-only effect; inactive means no such curve, though single readings can be large or run the other way; also: 0% is about no effect; nearly all actives have a fitted effect of over 55% in size; growth read by luminescence after 48 h
Cruzain inh Det: qHTS Assay for Promiscuous and Specific Inhibitors of Cruzain (with detergent) | Cruzipain (Trypanosoma cruzi), P25779 | purified cruzain, Z-FR-AMC fluorescence, 0.01% Triton | Potency, µM, inactives show max response, negative = inhibition, hits mostly inhibitors | hit rate 0.43% among 200,000 | AID 1478, 2009;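 also: plate controls were neutral wells for no effect and buffer without enzyme for full effect; nearly all actives have a fitted effect of over 40% in size; top concentration of the series not given in the record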
Target sequence (P25779 123-467 limits assumed): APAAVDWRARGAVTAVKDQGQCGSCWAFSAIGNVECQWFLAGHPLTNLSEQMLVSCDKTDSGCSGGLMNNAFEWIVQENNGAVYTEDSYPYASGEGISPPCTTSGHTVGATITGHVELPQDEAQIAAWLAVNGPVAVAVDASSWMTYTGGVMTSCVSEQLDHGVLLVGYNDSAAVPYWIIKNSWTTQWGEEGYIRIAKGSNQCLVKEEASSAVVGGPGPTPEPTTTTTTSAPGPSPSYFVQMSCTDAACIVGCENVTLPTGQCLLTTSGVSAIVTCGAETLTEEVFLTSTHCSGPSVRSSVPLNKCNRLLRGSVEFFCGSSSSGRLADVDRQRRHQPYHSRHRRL
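In this qHTS format, compounds are incubated with 1.5 nM cruzain for 15 min at room temperature before 2 uM Z-FR-AMC is added. Release of AMC is followed at 360/450 nm, and progress is taken as the 60 s fluorescence difference.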
Marburg entry inh: qHTS for inhibitors of binding or entry into cells for Marburg Virus. Marburg virus pseudotyped entry inhibition, cell reporter; control for the full effect not named in the record; about a third of the inactives were read at about 46 µM. Potency, µM (series often up to 37.8 µM), inactives show at the top dose activity change, negative = inhibition, actives largely listed as inhibitors. hit rate 1.8% among 300,000. AID 540276, 2011; active = well fitted inhibition curve with a large enough effect; inconclusive = small, poorly fitted or top-dose-only effect, or effect the other way; inactive = flat fitted curve, though single readings scatter; tested in HEK293 cells; about a fifth of its hits are not listed in these tables; also: % is scaled to controls: 0 for no effect and ±100 for the full control effect; luciferase read-out
NS1 function inh: qHTS Assay for Inhibitors of Influenza NS1 Protein Function | hit rate 0.4% among 270,000 | S. cerevisiae slowed by influenza A NS1, growth recovery by OD600 | Potency, µM (top dose mostly 46.1 µM), without a hit: at the highest dose activity, positive = more growth; active means well fitted rising curve with a large enough effect; inconclusive means small, poorly fitted or top-dose-only effect; inactive means no such curve, though single readings can be large or run the other way; also: nearly all actives have a fitted effect of over 50% in size
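Read-out: OD600 growth recovery of NS1-expressing budding yeast. Cells grown overnight at 30C in -URA glucose medium, washed, resuspended and diluted 1:100 in 2% galactose assay medium, pH 6.0. Same strain lacking NS1 served as positive control.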
Lassa entry inh: qHTS for Inhibitors of binding or entry into cells for Lassa Virus; hit rate 1.2% among 300,000; Lassa virus pseudotype entry inhibition, cell reporter; control for the full effect not named in the record; Potency, µM (top dose mostly 37.9 µM), for inactives: at the top dose activity change, negative = inhibition, usual class: inhibitors; active means well fitted inhibition curve with a large enough effect; inconclusive means small, poorly fitted or top-dose-only effect, or effect the other way; inactive means flat fitted curve, though single readings scatter; tested in HEK293 cells; also: % is scaled to controls: 0 for no effect and ±100 for the full control effect; nearly all actives have a fitted effect of over 50% in size; luciferase read-out
Cruzain noTriton: qHTS Assay for Promiscuous and Specific Inhibitors of Cruzain (without detergent). Cruzipain (Trypanosoma cruzi), P25779. purified cruzain, Z-FR-AMC fluorescence, no detergent. Potency, µM, for the others: max response, negative = inhibition, hits mostly inhibitors. hit rate 2.3% among 200,000. AID 1476, 2009;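 also: plate controls were enzyme without inhibitor for no effect and buffer without enzyme for full effect; nearly all actives have a fitted effect of over 40% in size; top concentration of the series not given in the record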
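Purified cruzain at 1.5 nM, pre-incubated 15 min with compound at room temperature in 100 mM sodium acetate pH 5.5, 5 mM DTT, 0.00005% Triton X-100. Reaction started with 2 uM Z-FR-AMC; AMC fluorescence increase over 60 s gives rate.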
2A StopGo: High Throughput Screening for Foot and Mouth Disease Virus Antivirals | AID 1159524, 2015 | Potency, µM (doses to about 57.9 µM), inactives show at the top dose signal change, negative = less light | hit rate 1.2% among 410,000 | human cells with a luciferase reporter of 2A StopGo recoding; control for the full effect not named in the record; active = well fitted falling curve with a large enough effect; inconclusive = small, poorly fitted or top-dose-only effect; inactive = no such curve, though single readings can be large or run the other way; tested in HEK293T cells; also: % is scaled to controls: 0 for no effect and ±100 for the full control effect; nearly all actives have a fitted effect of over 45% in size; luciferase light after 4 h
Starred values were filed as active, the others as inactive; ? = inconclusive; · = no result given; & = joins results of further samples; [ ] = dose if it differs, or a comment. Unless noted, calls follow the shape of the dose curve; as a rule, active = well fitted curve in the direction sought with a large enough effect; inconclusive = small, poorly fitted or top-dose-only effect, or another doubt; inactive = no such curve, though single readings can be large; an effect the other way counts as inactive or inconclusive. Potency is read from the fitted curve at half-maximal effect.

SMILES	RE007 growth inh	SARS PLpro yeast	Cruzain inh Det	Marburg entry inh	NS1 function inh	Lassa entry inh	Cruzain noTriton	2A StopGo
c1ccc(-c2cn3nc(-c4ccccc4)c(-c4ccccc4)nc3n2)cc1	-6.4%	-3.7%	1.6%	-2.3%	-0.2%	0.9%	?	0.2%
COc1ccc(C)cc1NC(=O)CCS(=O)(=O)c1cc2c3c(c1)CCN3C(=O)CC2	·	·	-14.7%	·	·	8.7%[46.1 µM]	2.5%	-10.0%
CC(NC(=O)Cn1cc(Br)c([N+](=O)[O-])n1)c1ccccc1 (stereo not given)	1.2%	-2.4%	·	?	7.4%	?	·	15.4%
CCCN(Cc1cc2ccc(C)cc2[nH]c1=O)S(=O)(=O)c1ccccc1	16.9%	7.3%	-0.9%	?	5.2%	-27.1%	-8.9%	-9.8%
Cc1ccc(C(=O)NC(=S)Nc2c(C)ccc3nsnc23)cc1	-13.3%	12.6µM*	-4.1%	2.1%	16.5%	12.6%	2.5%	-16.2%
O=C(NCCc1nc2ccccc2n1Cc1ccc(F)cc1)c1ccco1	·	·	-19.3%	-18.1%[46.1 µM]	·	-7.0%[46.1 µM]	6.9%	-9.2%
Cc1c2c(nc3nc4ccccc4n13)CC(C)(C)CC2=O	-2.4%	0.6%	-4.0%	-0.6%	-3.8%	7.8%	-3.5%	?
O=C(CC(=O)Nc1cccc(F)c1)Nc1cccc(F)c1	2.0%	1.6%	·	1.6%	-31.6%	0.1%	·	67.2%[activator]
CCc1ccc(NC(=O)C2=CC(c3ccc4c(c3)OCO4)=NS(=O)(=O)N2C)cc1	·	·	0.0%	-10.1%[46.1 µM]	·	19.0%[46.1 µM]	6.8%	-5.6%
CC(=O)NCCNc1ccc([N+](=O)[O-])cn1	7.9%	2.9%	-3.3%	13.1%	0.1%	-2.5%	-11.8%	-21.0%
COc1ccc(/C=C2\CCC(C3CCCC3)C2=O)c(OC)c1 (stereo not given)	3.7%	0.1%	·	·	-3.4%	·	·	51.8%[activator]
O=C(Cc1ccccc1)NN1C(=O)/C(=C/c2ccc(C(=O)O)cc2)SC1=S	2.6%	2.7%	·	·	-1.6%	·	·	-4.2%
O=C(NCc1cccs1)C1CCCCC1	2.2%	9.0%	4.9%	?	0.6%	-9.1%	-6.0%	0.0%
COC(=O)C(C(=O)NCC1CCCO1)C1CCCC1 (stereo not given)	9.5%	8.0%	6.4%	1.9%	5.9%	15.5%	-1.7%	14.9%
Cc1cc(C)cc(NC(=O)C(NCCN2CCOCC2)c2ccccc2)c1 (stereo not given)	-16.9%	-0.9%	·	-8.0%[46.1 µM]	·	·	·	3.0%
COc1cccc(NC(=O)CN(C)C(=O)CC2CCCCC2)c1	-9.7%	6.0%	·	5.7%	·	7.7%	·	-4.0%
Cc1c(C(=O)Nc2ccncc2)sc2nc(-c3ccc(F)cc3)cn12	-10.6%	-4.1%	2.5%	·	-43.4%	·	?	-7.0%
COc1ccccc1C(=O)Nc1ccnn1C1CCN(C/C=C/c2ccc(F)cc2)CC1	-10.8%	-2.5%	·	?	16.8%	-4.6%[46.1 µM]	·	5.6%
O=C(NC1CCN(Cc2ccccc2)CC1)c1ccc(Oc2cc(Cl)cc(Cl)c2)o1	0.6%	0.5%	·	·	1.7%	·	·	?
COc1ccc(CNC(=O)COC(=O)c2cccs2)cc1	4.5%	-0.6%	·	-12.8%[46.1 µM]	-20.8%	12.7%	·	27.1%

Shown with values under each structure: 3 of the compounds above.
Value order – RE007 growth inh | SARS PLpro yeast | Cruzain inh Det | Marburg entry inh | NS1 function inh | Lassa entry inh | Cruzain noTriton | 2A StopGo
- O=C(NCc1cccs1)C1CCCCC1
    2.2% | 9.0% | 4.9% | ? | 0.6% | -9.1% | -6.0% | 0.0%
- COC(=O)C(C(=O)NCC1CCCO1)C1CCCC1 (stereo not given)
    9.5% | 8.0% | 6.4% | 1.9% | 5.9% | 15.5% | -1.7% | 14.9%
- O=C(Cc1ccccc1)NN1C(=O)/C(=C/c2ccc(C(=O)O)cc2)SC1=S
    2.6% | 2.7% | · | · | -1.6% | · | · | -4.2%

The results go on.
SMILES	RE007 growth inh	SARS PLpro yeast	Cruzain inh Det	Marburg entry inh	NS1 function inh	Lassa entry inh	Cruzain noTriton	2A StopGo
O=C1OCCC1=Cc1ccccc1	-12.7%	·	·	-3.0%[46.1 µM]	·	-2.1%[46.1 µM]	·	-13.7%
C[C@]12C(=O)N(c3ccccc3)C(=O)N1[C@@H]1c3ccccc3OC[C@@H]1[C@H]2c1ccccc1	2.4%	3.0%	·	·	?	·	·	-15.7%
COc1ccccc1-c1c(C)[nH]n2c(=O)c(Cc3ccccc3)c(C)nc12	11.2%	0.5%	·	·	-2.6%	·	·	?
COC(=O)N1C(=O)[C@@](c2ccc(OC)cc2)(C(C)C)N1C(=O)OC	3.9%	-8.6%	·	·	-39.5%	·	·	?
O=C(CNC(=O)Cc1cccc2ccccc12)NCc1ccccc1F	3.4%	0.7%	·	-2.8%	21.1%	2.2%	·	-7.3%
COc1cc2c(cc1OC)C13CCN4CC5=CCOC6CC(=O)N2C1C6C5C3C4 (stereo not given) (tested in a mixture with another compound)	2.3%	·	·	-8.6%[46.1 µM]	·	1.7%[46.1 µM]	·	4.2%
O=C(Nc1cccc(S(=O)(=O)N2CCCCCC2)c1)c1ccc(Cl)nc1	3.8%	-1.1%	·	?	·	?	·	?
CCOc1ccc(NS(=O)(=O)N(C)C)cc1	9.9%	1.0%	-0.3%	0.2%[46.1 µM]	12.0%	1.0%	-1.5%	5.7%
CCCCC(CCC(=O)NNC(=O)Cc1ccccc1)C(=O)O (stereo not given)	10.7%	0.9%	3.9%	-6.3%	6.0%	11.8%	6.8%	-14.5%
Cc1ccc(S(=O)(=O)NCCC(=O)NCCOc2ccccc2)cc1	9.7%	-4.0%	·	0.0%	·	2.8%	·	8.8%
Cc1c(O)nc(SC2CC(=O)N(c3cc(Cl)cc(Cl)c3)C2=O)[nH]c1=O (stereo not given)	?	·	·	?	·	-2.5%	·	-18.2%
COc1ccc(NC(=O)Cn2nnc(C(=O)NCc3cccc(OC)c3)c2N)cc1	7.9%	2.3%	4.8%	1.9%[46.1 µM]	4.1%	6.2%	-8.2%	-9.7%
COc1ccccc1C1CC(=O)Oc2cc(C)c(Cl)cc21 (stereo not given)	-9.3%	-35.0%	-1.7%	·	·	·	-15.1%	-6.4%
CCC(C)(C)NC(=O)C(c1ccc(OC)cc1)N(Cc1ccccc1)C(=O)CCC(=O)Nc1cc(C)on1 (stereo not given)	6.2%	-1.9%	·	?	12.1%	1.7%[46.1 µM]	·	50.9%[activator]
N=C1c2ccccc2CN1NC(=O)c1ccc(F)cc1	-8.9%	-7.0%	2.2%	18.5%	7.5%	8.3%	-10.3%	·
COCCNC(=O)CCc1nc(-c2ccccc2)no1	2.0%	0.2%	5.9%	0.4%	-1.7%	0.2%	-16.6%	-19.5%
O=C(NCc1nnc(SCC(=O)N2CCOCC2)o1)c1c(F)cccc1F	1.1%	-5.9%	·	?	4.7%	-0.8%	·	-21.4%
CC1CC(C)CN(C(=O)c2ccc(C#N)cc2)C1 (stereo not given)	-15.8%	0.0%	·	7.1%[46.1 µM]	·	-12.3%	·	-10.2%
CC(=O)c1cccc(NC(=O)CCn2nc(C)c(S(=O)(=O)N3CCCCC3)c2C)c1	·	·	-1.2%	·	·	6.0%[46.1 µM]	-9.4%	9.7%
Cc1ccccc1N(C(=O)c1csnn1)C(C(=O)NC1CCCC1)c1ccncc1 (stereo not given)	1.9%	2.5%	·	27.0%[46.1 µM]	4.1%	1.1%	·	-11.2%
CN(c1ccccc1)S(=O)(=O)c1cccc(NC(=O)CCN2C(=O)C3CCCCC3C2=O)c1 (stereo not given)	5.7%	4.3%	·	-11.5%[46.1 µM]	·	-3.1%	·	-28.6%
COc1ccc(OC)c(C2CC(=O)Nc3cc(OC)c(OC)c(OC)c32)c1 (stereo not given)	-12.5%	-0.7%	-1.2%	-9.9%	-3.9%	-16.3%	0.9%	50.8%[activator]
COC(=O)CNc1c(-c2ccccn2)nc2ccc(Br)cn12	-16.5%	-1.8%	-7.0%	29.0%&29.0%	-58.9%	5.8%	-0.8%	34.0%
O=C(O)CC(c1cccc(C(F)(F)F)c1)N1CCS(=O)(=O)CC1 (stereo not given)	21.0%	0.1%	·	19.5%[46.1 µM]	6.2%	-15.2%[46.1 µM]	·	-13.9%
COc1ccccc1N1CCN(/N=C/c2ccc([N+](=O)[O-])cc2)CC1	9.9%	18.0%	·	·	18.5%	·	·	24.6%
CCN(CC)C(=O)c1sc2c(c1C)c(=O)n(-c1ccc(OC)cc1OC)c(=O)n2CC(=O)Nc1ccccc1	·	·	0.8%	·	·	-0.2%[46.1 µM]	?	-5.5%
CC(Sc1nnc(COc2ccc3ccccc3c2)n1C)C(=O)O (stereo not given)	-14.5%	7.5%	0.4%	11.3%	-10.9%	4.4%	-2.7%	6.5%
Cc1ccccc1C(=O)Nc1ccc(N2CCN(C(=O)c3ccco3)CC2)cc1	12.8%	1.2%	·	-18.8%[46.1 µM]	4.5%	·	·	-17.9%
CC(C)=CCN1CCN(CC#Cc2ccccc2)CC1CCO (stereo not given)	1.8%	-0.5%	·	·	0.9%	·	·	-8.9%
O=C(CCCCCn1c(=O)c2sccc2n(Cc2ccccc2Cl)c1=O)NCc1ccc2c(c1)OCO2	·	·	-2.1%	-0.4%[46.1 µM]	·	-3.6%[46.1 µM]	-4.5%	5.5%
